Assay outcomes (PubChem BioAssay)
ALR inh: blocks human ALR sulfhydryl oxidase activity; hit rate 3.8% among 290,000; AID 485317; P55789; inhibition, % (concentration not given with the values); purified ALR, DTT oxidation, H2O2 HRP-luminol luminescence;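 active means mean and each replicate at 75% or more; inconclusive means only one of the two met; inactive means neither met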;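 further: stock transfer was 7.5 nL into about 7.5 µL; 0% = neutral wells and 100% = wells with inactivated enzyme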
Target sequence (P55789 whole entry, looked up): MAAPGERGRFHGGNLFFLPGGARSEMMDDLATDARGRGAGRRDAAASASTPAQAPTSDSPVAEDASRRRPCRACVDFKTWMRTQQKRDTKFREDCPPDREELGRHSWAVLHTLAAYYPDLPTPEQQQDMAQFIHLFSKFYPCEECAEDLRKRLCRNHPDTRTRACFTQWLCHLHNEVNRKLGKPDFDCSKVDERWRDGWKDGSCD
T cruzi repl: T. cruzi replication inhibition; inhibition, % (concentration not given with the values); hit rate 1.4% among 300,000; AID 1885; T. cruzi beta-gal in NIH3T3, luminescence, 90 h;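 active means mean inhibition across valid replicates above about 55%, limit read from the data; inconclusive means mean below that limit but half or more replicates reach it; inactive means mean below it, under half of replicates reach it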;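 further: signal also drops with host cell toxicity which is not excluded here; 0% = plate median of DMSO wells and 100% = zero luminescence signal; higher percent means less beta-gal luminescence so fewer parasites; stock transfer was 50 nL into about 50 µL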
RanGTP-Impb inh: disruptors of Ran-importin-beta complex formation – biochemical, FRET, CFP-Ran, YFP-importin-beta, homogeneous, primary screen; AID 2216; inhibition, % (no concentration beside the values); cell-free CFP-Ran/YFP-importin-beta FRET ratio; hit rate 1.1% among 300,000;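 active means most replicates above 15%; inconclusive means exactly half above 15%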;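 further: 0% = DMSO wells and 100% = Ran loaded with GDP instead of GTP; wells of about 40 µL received 100 nL stock; the first replicate is given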
Calb FLC: C. albicans growth modulation with fluconazole; hit rate 0.57% among 300,000; growth inhibition, % (concentration not given with the values); C. albicans CaCi-2 (fluconazole-resistant clinical isolate) + fluconazole, Alamar Blue growth, 48 h;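 active means most replicates above 75%; inconclusive means exactly half above 75%; inactive means most below 75%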;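 further: all wells also contain fluconazole at 8 µg/ml as a sub-toxic cotreatment; 0% = median of DMSO wells and 100% = median of geldanamycin control wells; wells of about 8 µL received 7.5 nL stock; the first replicate is given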
FGF22 binding: FGF22 (human) thermal shift binding | Q9HCT0 | calls only at 9.99 µM | AID 651658 | hit rate 1.5% among 340,000 | recombinant FGF22 thermal shift, SYPRO orange fluorescence; percent of sucrose octasulfate shift, DMSO zero;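 active means melting point raised past a set limit in the mean and every replicate; inconclusive means no clear call; three in four hits are not shown here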
Target sequence (Q9HCT0 whole entry, looked up): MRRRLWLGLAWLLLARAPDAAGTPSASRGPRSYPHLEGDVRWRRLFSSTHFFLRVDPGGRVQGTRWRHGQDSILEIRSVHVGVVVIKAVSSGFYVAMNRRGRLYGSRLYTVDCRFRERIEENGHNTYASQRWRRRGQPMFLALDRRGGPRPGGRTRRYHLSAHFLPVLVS
Beta cell apopt: blocks beta cell apoptosis; INS-1E cytokine-induced death, ATP luminescence, 48 h; percent of positive-control rescue, neutral wells zero; protection from apoptosis, % (concentration not given with the values); hit rate 0.8% among 300,000; AID 435005;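 active means all replicates at 75% or more, or half of them and the mean; inconclusive means half reach 75% but not the mean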;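 further: 0% = cytokine-treated negative control wells and 100% = positive control rescue; higher means more ATP so stronger rescue from cytokine killing; wells of about 40 µL received 100 nL stock; the first replicate is given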
AF4-AF9 inh: MLL-AF4/AF9 protein interaction inhibition. P42568. AlphaScreen, biotin-AF4 peptide binding to FLAG-AF9. hit rate 0.47% among 350,000. inhibition, % at 10 µM. AID 651704;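 active means every replicate reaching a set inhibition limit, whatever the replicate mean, cut at about 25% in these data; inconclusive means mean inhibition reaches that limit but some replicates miss it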;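 further: 0% = plate neutral control median and 100% = total signal loss; the record names both 10 and 1 µM as test concentration; the first replicate is given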
Target sequence (P42568 whole entry, looked up): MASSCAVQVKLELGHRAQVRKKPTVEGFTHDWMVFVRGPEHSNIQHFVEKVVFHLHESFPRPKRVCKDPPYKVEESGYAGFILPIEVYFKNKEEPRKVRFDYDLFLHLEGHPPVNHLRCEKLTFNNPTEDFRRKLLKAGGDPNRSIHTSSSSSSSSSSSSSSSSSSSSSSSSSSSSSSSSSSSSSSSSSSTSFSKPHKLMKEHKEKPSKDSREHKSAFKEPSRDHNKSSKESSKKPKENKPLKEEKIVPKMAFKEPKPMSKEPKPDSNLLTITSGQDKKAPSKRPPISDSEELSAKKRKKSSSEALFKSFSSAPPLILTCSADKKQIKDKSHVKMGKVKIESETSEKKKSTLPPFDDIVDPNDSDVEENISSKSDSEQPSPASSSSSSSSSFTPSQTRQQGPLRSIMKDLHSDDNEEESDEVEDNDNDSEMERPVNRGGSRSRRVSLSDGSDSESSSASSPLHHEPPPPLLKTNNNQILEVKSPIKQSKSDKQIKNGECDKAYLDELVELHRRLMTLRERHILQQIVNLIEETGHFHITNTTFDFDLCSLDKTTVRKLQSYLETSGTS
rRNA inh HTS: selective bacterial rRNA inhibition in E. coli; AID 720706; hit rate 1.6% among 350,000; GFP signal change (wild-type ribosome), % (concentration not given with the values); E. coli WT GFP vs humanized-ribosome RFP mutants, fluorescence, 24 h; hits give low values; DMSO median 0, no signal -100;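 active means significant combined selectivity score with lowered wild-type GFP, culture density cut under 30%, mutant RFP and density less affected; inactive means any of these conditions unmet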; further: one replicate is shown; some compounds called inactive have numbers as strong as hits
rRNA inh HTS OD600: further read-out of rRNA inh HTS, marked with its call; OD600 change, %; measured here: OD600 growth;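 optical density of the mix in the first replicate; 0 = DMSO median and -100 = no signal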
rRNA inh HTS RFP: also measured in rRNA inh HTS; calls as there; RFP signal change, %; measured here: RFP humanized mutant strains;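 first replicate; 0 = DMSO median and -100 = no signal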
An asterisk follows results filed as active; i = inactive; ? = inconclusive; / = not tested or not shown.

The first 8 entries as a preview:
entry	Compound	ALR inh	T cruzi repl	RanGTP-Impb inh	Calb FLC	FGF22 binding	Beta cell apopt	AF4-AF9 inh	rRNA inh HTS	rRNA inh HTS OD600	rRNA inh HTS RFP
1	FC(F)(F)c1cc(Oc2ccc(Cl)cc2)nc(-c2ccccn2)n1	3	10	3.1	-6	/	0	/	/	/	/
2	CC(=O)n1cc(N(C(=O)CCl)c2ccccc2)c2ccccc21	9	11	-2.9	43	i	-24	2.7	-3	4	-1.4
3	COc1cc(NC(=O)CC(C)S(=O)(=O)c2cc3c(cc2C)NC(=O)CO3)cc(OC)c1OC (stereo not given)	13	18	4.7	2	i	-6	0.0	6	10	-0.2
4	O=C(Cn1cnc2c(oc3nc4c(cc32)CCCC4)c1=O)Nc1ccccc1	-1	-4	?	-4	i	5	0.3	6	6	-0.3
5	CC(C)(C)c1[nH]nc2c1C(c1ccoc1)C(C#N)=C(N)O2 (stereo not given)	15	-14	5.7	-3	/	-2	/	/	/	/
6	Cc1cc2cc(CCNC(=O)c3ccc(S(=O)(=O)N4CCCC4)cc3)c(=O)[nH]c2cc1C	-7	4	4.6	20	i	12	-2.2	-30	-37	-0.7
7	Cc1ccc(CNC(=O)C2CC3Cn4c(nc5cc(Cl)c(Cl)cc54)C3N2C)o1 (stereo not given)	/	2	-7.0	-7	i	-3	-4.3	4	18	18
8	O=C(COC(=O)c1ccccc1F)NCc1ccc2c(c1)OCO2	/	/	/	/	i	-6	-0.1	2	11	-2.1

The listing, from the start:
entry	Compound	ALR inh	T cruzi repl	RanGTP-Impb inh	Calb FLC	FGF22 binding	Beta cell apopt	AF4-AF9 inh	rRNA inh HTS	rRNA inh HTS OD600	rRNA inh HTS RFP
1	FC(F)(F)c1cc(Oc2ccc(Cl)cc2)nc(-c2ccccn2)n1	3	10	3.1	-6	/	0	/	/	/	/
2	CC(=O)n1cc(N(C(=O)CCl)c2ccccc2)c2ccccc21	9	11	-2.9	43	i	-24	2.7	-3	4	-1.4
3	COc1cc(NC(=O)CC(C)S(=O)(=O)c2cc3c(cc2C)NC(=O)CO3)cc(OC)c1OC (stereo not given)	13	18	4.7	2	i	-6	0.0	6	10	-0.2
4	O=C(Cn1cnc2c(oc3nc4c(cc32)CCCC4)c1=O)Nc1ccccc1	-1	-4	?	-4	i	5	0.3	6	6	-0.3
5	CC(C)(C)c1[nH]nc2c1C(c1ccoc1)C(C#N)=C(N)O2 (stereo not given)	15	-14	5.7	-3	/	-2	/	/	/	/
6	Cc1cc2cc(CCNC(=O)c3ccc(S(=O)(=O)N4CCCC4)cc3)c(=O)[nH]c2cc1C	-7	4	4.6	20	i	12	-2.2	-30	-37	-0.7
7	Cc1ccc(CNC(=O)C2CC3Cn4c(nc5cc(Cl)c(Cl)cc54)C3N2C)o1 (stereo not given)	/	2	-7.0	-7	i	-3	-4.3	4	18	18
8	O=C(COC(=O)c1ccccc1F)NCc1ccc2c(c1)OCO2	/	/	/	/	i	-6	-0.1	2	11	-2.1
9	CN1C(=O)N(C)C2(c3ccccc3)NNC(N)=NC12c1ccccc1 (stereo not given)	3	-6	0.5	-8	i	-15	-2.6	0	6	1.3
10	COc1ccc(NC(=O)CCC(=O)OC(C(=O)c2ccccc2)c2ccccc2)cc1 (stereo not given)	-4	-12	-14	-1	/	-4	/	/	/	/
11	CCOC(=O)C(C)NC(=O)CCc1nnc2ccc(N3CCCCC3)nn12 (stereo not given)	-4	-4	-0.6	0	i	-7	-1.6	1	14	7.0
12	COCCCNc1nc2c(c(=O)n(Cc3cccc(Br)c3)c(=O)n2C)n1C	-12	6	?	2	i	6	4.1	-12	-13	0.3
13	COc1ccc(C(=O)NC(C)CCn2cccn2)cc1OC1CCN(C(C)C)CC1 (stereo not given)	-1	-4	-1.7	-1	i	-2	-1.9	5	0	1.3
14	CC(=O)c1cccc(NC(=O)N2CCCC2C(=O)Nc2ccc3c(c2)OCO3)c1 (stereo not given)	-6	8	2.1	4	i	0	-4.0	4	0	3.4
15	O=C(O)[C@H]1CCC(=O)N1Cc1ccco1	/	-10	-1.4	-1	/	-1	/	/	/	/
16	O=C(O)c1ccc2c(c1)CCCN2	-15	-21	6.7	1	i	-4	-2.4	-6	-6	4.1
17	O=C(CSc1ccccc1)Nc1ccc2c(c1)OCCO2	-6	-16	-2.2	-30	i	/	-0.6	-3	-4	1.1
18	COc1ccc2cc(C3CC(c4ccco4)=NN3S(C)(=O)=O)c(Cl)nc2c1 (stereo not given)	-5	3	-5.2	-4	i	-7	9.0	16	19	5.6
19	CCOC(=O)CC(NC(=O)Cc1ccc(F)cc1)c1ccccc1Cl (stereo not given)	-5	-19	6.5	-4	i	-7	-2.7	5	12	-1.0
20	O=C(NCC1CCCO1)c1ccc(NC(=O)C2CC=CCC2C(=O)O)cc1 (stereo not given)	10	-2	-2.0	-8	/	-2	/	/	/	/
21	COc1ccc(NS(=O)(=O)c2ccc(N3CCCCC3)c(N)c2)cc1	4	/	/	/	i	102*	1.0	/	/	/
22	O=C(O)CCCC(=O)Nc1ccccc1SCCS(=O)(=O)c1ccc(Cl)cc1	5	-5	-0.4	1	i	-5	0.5	-5	-5	2.6
23	CC(C)(CNC(=O)c1ccc(S(=O)(=O)Nc2cccc(C(F)(F)F)c2)cc1)N1CCOCC1	0	/	/	/	i	1	0.4	/	/	/
24	COc1cc(C(=O)NCc2nnc(SCC(=O)Nc3cc(C)on3)o2)cc(OC)c1OC	/	-4	-1.5	-8	i	0	-0.8	7	6	-9.4
25	Cc1cc(-c2onc(C)c2C(=O)Nc2ccc(C(F)(F)F)cc2)no1	-21	9	1.7	0	i	1	0.3	5	4	-1.6
26	O=S(=O)(c1ccc(N2CCOCC2)nc1)N(Cc1ccccn1)Cc1ccccn1	-6	-2	2.0	3	i	-6	-1.5	5	0	-2.6
27	Cc1cnc(C(=O)Nc2ccccc2C(=O)N2CCOCC2)cn1	-5	-4	1.3	-2	/	-5	/	/	/	/
28	O=C(CSc1ncn[nH]1)CSc1ncn[nH]1	94*	-8	0.7	1	i	-4	-3.7	2	3	-2.1
29	COc1ccc(-c2cc(-c3nnc(COC(=O)c4ccc(O)cc4)o3)c3ccccc3n2)cc1OC	0	31	2.1	8	i	/	-1.4	-9	-11	-2.9
30	NC(=O)c1ccc(-c2ncc(-c3ccccc3)o2)cc1	-2	12	0.8	20	/	-6	/	/	/	/
31	CN(CCO)c1nc(N)c2c(N)nc3c(c2c1C#N)CC(=O)N3C1CCCC1	-5	13	4.3	0	/	48	/	/	/	/
32	O=c1[nH]c(C2CCCN(S(=O)(=O)c3ccccc3)C2)nc2c1nnn2Cc1ccc(OC(F)(F)F)cc1 (stereo not given)	-6	0	1.5	7	i	3	-0.8	1	7	-1.1
33	O=C(Cc1ccc(Br)cc1)NC1CCSC1=O (stereo not given)	-2	-1	3.9	-23	i	-3	0.5	18	4	1.8
34	Cc1ccc(NS(=O)(=O)c2ccc(C(=O)NCC(c3ccco3)N(C)C)cc2)cc1 (stereo not given)	-5	5	1.0	-12	i	4	5.1	0	7	2.4
35	CC(Oc1ccccc1F)C(=O)NNC(=O)c1cc2ccccc2o1 (stereo not given)	2	-1	-4.5	?	i	-1	-2.2	8	2	-1.1
36	CCN(CC)C(=O)C(=O)Nc1ccc(F)c(Cl)c1	-21	-10	3.4	-22	i	-8	-1.6	2	9	-0.9
37	Cc1nnc(SCC(=O)NCc2ccc(F)cc2)[nH]c1=O	2	-1	0.5	3	i	-4	-3.2	-48	-74	-11
38	COc1cc2c(cc1OC)C(c1cc(Br)ccc1F)N(C(=O)CCl)CC2 (stereo not given)	8	65*	2.3	-3	i	7	-1.3	0	-5	-1.0
39	Cc1ccc(SCc2cn3c(C)csc3n2)cc1	/	14	1.3	3	i	-10	4.5	-51*	-19*	-7.9*
40	Cc1ccc(C(=O)N[C@H](C(=O)OCC(=O)Nc2cccc(S(N)(=O)=O)c2)C(C)C)cc1	-6	0	-1.0	2	i	0	5.7	-7	-3	-0.8
41	CCN/C=C(\C#N)S(=O)(=O)c1ccc(Br)cc1	0	4	-2.2	15	i	-8	-4.1	-3	5	2.4
42	COC(=O)C1=C(CSc2nc3ccccc3s2)NC(=O)NC1c1ccc(F)cc1 (stereo not given)	37	22	-5.3	-7	/	-12	/	/	/	/
43	COc1ccc(CN2CC[C@H]3C=CC[C@@H](C(=O)Nc4ccc(Cl)c(C(F)(F)F)c4)[C@H]3C2=O)cc1OC	-2	38	1.1	0	i	-1	-2.2	-7	-18	-0.3
44	O=C(N[C@H]1CCC(=O)N([C@H](CSc2ccccc2)Cc2ccccc2)CC1)OCc1ccccc1	1	33	?	-2	i	8	-0.8	5	5	2.0
45	CC(=O)Nc1ccccc1NS(=O)(=O)c1cccc([N+](=O)[O-])c1	-2	-7	0.0	4	i	-6	0.6	15	11	-2.2
46	CCn1c(SC(C)C(=O)NC2CCCC2)nc2cc(S(N)(=O)=O)ccc21 (stereo not given)	-1	/	/	/	i	-5	-0.9	5	8	0.3
47	COc1ccc(OC)c(N2Cc3cc(C)c(C)cc3C2)c1	-6	?	-4.7	-7	i	3	7.3	0	4	-0.2
48	CCOC(=O)CN1C(=O)C2(OCCCO2)c2cc(Br)ccc21	2	0	0.5	-3	i	4	-6.7	6	-3	-0.2
49	Cc1c(C(=O)N2CCN(c3ccc(C(F)(F)F)cn3)CC2)oc2ccccc12	-7	5	2.5	3	/	5	/	/	/	/
50	c1ccc(N2CC3CCc4ccccc4C3=N2)cc1 (stereo not given)	?	12	?	-19	i	1	-2.6	/	/	/
51	COc1ccc(Cn2c(-c3ccccc3C)nc3c(c(=O)c4ccccc4n3C)c2=O)cc1	-5	5	1.8	-2	i	5	/	15	5	1.2
52	Cc1occc1C(=O)N1CCN(C(c2ccccc2)c2ccccc2)CC1	5	-7	1.8	?	/	-3	/	/	/	/
53	CC(NC(=O)C(=O)N/N=C/c1ccccc1)c1ccccc1 (stereo not given)	-15	-4	4.0	-6	i	-3	-1.8	21	13	-6.9
54	O=c1cc(-c2ccccc2)c2cc3c(cc2[nH]1)OCCO3	-23	5	3.4	7	i	3	0.2	19	-2	0.5
55	Cc1oc2ccc(O)c(CN3CCOCC3)c2c1C(C)O (stereo not given)	37	-1	1.6	-15	/	-1	/	/	/	/
56	COc1cc(NS(=O)(=O)c2ccc(NC(=S)NC(C)=O)cc2)nc(OC)n1	10	-16	-1.2	-10	i	-7	0.3	5	-10	-2.7
57	COCCCNC(=O)c1ccc(NS(C)(=O)=O)cc1	3	-1	9.6	-3	/	-4	/	/	/	/

Only part of the results is shown, so the mix of outcomes need not match the whole.
